PINK1 expr mod – modulators of PINK1 expression; PINK1 immunofluorescence, high-content cytometry, 24 h; Potency, µM (top dose mostly 76.6 µM), for inactives: at the highest dose activation (PINK1 increase), hits mostly activators; 410,000 tested, 0.2% active; active = well fitted activation curve with a large enough effect; inconclusive = small, poorly fitted or top-dose-only effect; inactive = flat fitted curve, though single readings scatter; cell line not stated here;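 note: % of control where 0% means no effect; nearly all actives have a fitted effect of over 65% in size; a mitochondrial uncoupler was the plate control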
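PINK1 protein, normally rapidly degraded, was detected by immunofluorescence after 24 hour compound treatment of a stable cell line. Titration data (5 concentrations) came from laser-scanning cytometry, with CCCP-treated wells as controls.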
Active calls of the source: *; u = inconclusive; & = joins results of further samples. Potency is the fitted concentration of half-maximal effect. The list is partial. The share of hits here may be higher or lower than overall.

mol | PINK1 expr mod
CC(=O)NCCNc1nc(-c2ccccc2Cl)nc2ccccc12 | 0.9%
CC(C)(C)n1ncc2c(=O)n(Cc3ccccc3Br)cnc21 | 1.1%
COc1ccc(C(=O)N(Cc2cc3cccc(C)c3nc2N(C)C)CC2CCCO2)cc1 (stereo not given) | -0.1%
COCCn1c(=O)cnc2cnc(Oc3ccccc3)nc21 | 0.4%
CCNc1ncc2nc(-c3ccc(OC)cc3)c(=O)n(-c3ccc(OC)cc3)c2n1 | u
CCC(C)C(=O)OC1CC(C)C=C2C=CC(C)C(CCC3CC(O)CC(=O)O3)C21 (stereo not given) | -0.8%
CC1(C)CC2C1CC[C@]1(C)CCC3C(C(=O)O)CC(=O)O[C@]32C1 (stereo not given in full) | 1.0%
COc1ccc(NC(=O)N2CCC3(CC2)CCN(C(=O)c2cccn2C)CC3)cc1 | -0.8%
CC(C)c1c(C(=O)NCc2cccnc2)cnn1-c1nccc(-c2cccs2)n1 | 0.0%
CN(C)Cc1ccccc1-c1cncnc1Nc1ccncc1 | -1.3%

mol | PINK1 expr mod
CCNc1ncc2nc(C)c(=O)n(Cc3cccs3)c2n1 | 1.0%
CN1CCN(c2ncc3nc(-c4cn(C)c5ccccc45)c(=O)n(Cc4cccs4)c3n2)CC1 | u
COCC(=O)Nc1cc(C(=O)N2CCCC(c3ccccc3)CC2)c2c(c1)nc(-c1ccncc1)n2C (stereo not given) | -0.4%
COCC(=O)N1CCC[C@@]2(CCN(c3ncccn3)C2)C1 | 1.1%
COc1ccc(NC(=O)N2CCCC3(CCN(C(=O)c4ccncc4)CC3)C2)cc1 | 0.5%
CC(C)NC(=O)N1CC[C@@]2(CCCN(C(=O)c3cnccn3)C2)C1 | -0.7%
COc1ccc(-n2c(=O)c(-c3cn(C)c4ccccc34)nc3cncnc32)cc1 | 1.2%
COc1ccc2[nH]cc(CCNc3nc(-c4ccccc4CN(C)C)nc4ccccc34)c2c1 | -0.8%
CC(=O)[C@]1(O)CCC2C3CCC4=CC(=O)CC[C@@]4(C)C3CC[C@]21C (stereo not given in full) | -0.1%
O=S(=O)(c1cccc(Cl)c1)N1CCN(S(=O)(=O)c2ccc3c(c2)OCCO3)CC1 | 4.3%

5 compounds from above, arranged by count of non-hydrogen atoms, ascending.
mol | PINK1 expr mod
COCCn1c(=O)cnc2cnc(Oc3ccccc3)nc21 | 0.4%
CC(=O)[C@]1(O)CCC2C3CCC4=CC(=O)CC[C@@]4(C)C3CC[C@]21C (stereo not given in full) | -0.1%
CCNc1ncc2nc(-c3ccc(OC)cc3)c(=O)n(-c3ccc(OC)cc3)c2n1 | u
COc1ccc(C(=O)N(Cc2cc3cccc(C)c3nc2N(C)C)CC2CCCO2)cc1 (stereo not given) | -0.1%
CN1CCN(c2ncc3nc(-c4cn(C)c5ccccc45)c(=O)n(Cc4cccs4)c3n2)CC1 | u

The listing continues.
mol | PINK1 expr mod
CN(C)c1ncc2nc(-c3ccccc3)c(=O)n(-c3ccccc3)c2n1 | 2.0%
Cc1ccc(C(=O)Nc2ccc(N3CCCCC3)cc2)cc1 | 2.0%
N#Cc1cccc(NC(=O)N2CC[C@@]3(CCCN(C(=O)c4cnccn4)C3)C2)c1 | -0.3%
COCCn1c(=O)c(-c2ccc(F)cc2)nc2cnc(Oc3cccc(Cl)c3)nc21 | 0.7%
N#Cc1cccc(NC(=O)N2CC[C@@]3(CCCN(C(=O)c4cc(C(F)(F)F)cc(C(F)(F)F)c4)C3)C2)c1 | 0.0%
COC(=O)CCC(C)C1CCC2C3C(O)C[C@@H]4CC(O)CC[C@@]4(C)C3CC(O)[C@]12C (stereo not given in full) | 0.1%
O=S(=O)(c1ccccc1)N1CCC2(CC1)CN(c1ccccn1)C2 | -0.7%
N#CCCn1c(=O)c(-c2cccc(C#N)c2)nc2cnc(Oc3cccc(Cl)c3)nc21 | 2.6%
Cc1cnc(CNc2nc(-c3ccccc3C(F)(F)F)nc3ccccc23)cn1 | 0.3%
COc1cc(=O)n2c(c1C(=O)NCc1ccco1)CCN(Cc1ccc3ccccc3c1)CC2 | 1.9%

mol | PINK1 expr mod
CN1CCN(c2ccnc(-c3ccccc3C(F)(F)F)n2)CC1 | 0.4%
C[C@@H]1CN(Cc2ccc3c(c2)CN(Cc2cccn2-c2ccc(Cl)cn2)CCO3)C[C@H](C)O1 | 2.5%
N#Cc1ccc(CN2CCCC3(CCN(C(=O)c4ccco4)CC3)C2)cc1 | 0.1%
O=C(O)C1(O)CC(O)C(O)C(O)C1 (stereo not given) | 2.6%
CCN1CCCC1CNC(=O)c1cnn(-c2ncc(C)c(-c3ccc(F)cc3)n2)c1C(C)C (stereo not given) | -0.7%
CCC1(C2CCN(C(=O)c3ccccc3C)CC2)NC(=O)N(CCc2scnc2C)C1=O (stereo not given) | -0.3%
CS(=O)(=O)N1CCC2(CCCN(C(c3ccccc3)c3ccccc3)C2)CC1 | 1.7%
CN(C)c1ncc2ncc(=O)n(CCC#N)c2n1 | -0.6%
CCNc1ncc2nc(-c3ccccc3)c(=O)n(CCOC)c2n1 | -0.2%
COc1ccc(-c2nc3cnc(OC)nc3n(-c3ccccc3)c2=O)cc1 | 1.1%

mol | PINK1 expr mod
COC(=O)c1c(OCc2cccnc2)cc(=O)n2c1CCN(C(=O)c1cccc(N(C)C)c1)CC2 | 0.9%
Clc1ccccc1-c1ccc2ncnc(NCc3cccnc3)c2c1 | 0.0%&-0.3%
COc1ccccc1-c1ccnc(-n2ncc(C(=O)N(C)CCc3ccccn3)c2C)n1 | -0.5%
Cc1c(C(=O)NCC2COCCO2)cnn1-c1nccc(-c2cccs2)n1 (stereo not given) | 2.5%
O=C1C=C(O)c2ccccc2C1=O | -1.9%
COc1ccc(OC)c(-c2nnc3n2N=C(c2ccc(OC)c(OC)c2)CS3)c1 | 7.9%
O=c1c(-c2ccccc2)nc2cnc(Nc3ccccc3)nc2n1C[C@H]1CCCO1 | 5.9%
NC(=O)C1CCN(c2nc(-c3cccnc3)cs2)CC1 | 0.6%
COc1cc(Cl)c(C)cc1N1C(=O)[C@@H]2C[C@H]1CN2Cc1ccccn1 | 1.3%
CSc1sc(C(=O)O)c2c1C(=O)CC(C)(C)C2 | -0.1%

mol | PINK1 expr mod
COC(=O)[C@@H]1CCCN1C(=O)c1cc(NC(=O)c2ccccc2)cc2ncn(C3CCCC3)c12 | -0.1%
CO[C@H]1[C@H](NC(=O)c2ccsc2)c2ccccc2C12CCN(Cc1cc(Cl)ccc1O)CC2 | 0.4%
COc1ccccc1-c1nc(N(C)C)c2ccccc2n1 | 5.4%
Nc1ncnc2c1[nH]c(=O)n2C1CC(O)C(CO)O1 (stereo not given) | 0.6%
COCC(=O)Nc1cc(C(=O)NC2C3CC4CC2CC(O)(C4)C3)cc2nc(-c3ccccc3)n(C)c12 (stereo not given) | -0.2%
COc1ccccc1-c1cc2c(c(OC)c1)OCCN(CCC(C)c1ccc(C)o1)C2 (stereo not given) | 1.0%
CS(=O)(=O)Nc1cccc(-c2cncnc2NCc2cccnc2)c1 | 1.2%
COc1cccc(Cn2c(=O)c(-c3cccs3)nc3cnc(OCc4ccccc4)nc32)c1 | 1.7%
O=c1c(-c2ccc(Cl)cc2)nc2cnc(N3CCOCC3)nc2n1CCc1ccccc1 | 0.2%
NC(=O)C1CCN(c2nc(-c3ccc4c(c3)OCCO4)cs2)CC1 | 0.2%

mol | PINK1 expr mod
COc1ncc2nc(-c3ccc(F)cc3)c(=O)n(CCC#N)c2n1 | -0.4%
COC(=O)[C@@H]1CCCN1C(=O)c1cc(NC(=O)C2CCC2)c2c(c1)nc(-c1ccncc1)n2C | -0.3%
Cn1nnnc1Sc1ncnc2scc(-c3ccc4c(c3)OCO4)c12 | 1.4%
CN1CCN(c2ncc3nc(CCc4ccccc4)c(=O)n(C4CC4)c3n2)CC1 | 2.1%
CCNc1ncc2nc(-c3ccc(Cl)cc3)c(=O)n(Cc3cccs3)c2n1 | 2.7%
CCC1CN(CCNC(=O)C2CCCCN2C)Cc2cc(OC)ccc2O1 (stereo not given) | -0.3%
COc1cc(=O)n2c(c1C(=O)NCc1ccco1)CCN(Cc1ccc3nsnc3c1)CC2 | 1.9%
COc1ccccc1C(=O)N1CCOc2ccc(CN3CCN(Cc4ccccn4)CC3)cc2C1 | -0.7%
CCNc1ncc2nc(CCc3ccccc3)c(=O)n(CCC#N)c2n1 | 1.8%
Nc1nc2c(nc(Cl)n2C2OC(CO)C(O)C2O)c(=O)[nH]1 (stereo not given) | 0.6%

mol | PINK1 expr mod
O=C(NCc1ccccn1)c1cnn(-c2nccc(-c3ccccc3F)n2)c1C1CC1 | -0.7%
COc1ccc(CCN(C)Cc2cc(-c3cncnc3)ccc2O)cc1OC | 0.9%
COc1cc(=O)n2c(c1C(=O)NCc1ccsc1)CCN(Cc1nc3ccccc3[nH]1)CC2 | 1.7%
CSc1nccc(-c2cc(Cl)c3c(c2)CC(CNC(=O)c2ccc(C)nc2)O3)n1 (stereo not given) | 1.9%
COc1ncc2nc(-c3ccc(Cl)cc3)c(=O)n(CCc3ccccc3)c2n1 | 0.9%
COc1ccccc1-c1cncnc1NCCc1cnc[nH]1 | -0.4%
CCC(=O)NC(c1ccco1)c1cc(Cl)c2ccccc2c1O (stereo not given) | 5.0%
Cc1cc(C(=O)N2CCOc3ccc(CN4CCC(Oc5cccnc5)CC4)cc3C2)c(C)o1 | 1.5%
CN1CCC2(CC1)CCN(C(=O)c1cccc(F)c1)CC2 | -0.8%
Cn1cc(-c2nc3cnc(N4CCOCC4)nc3n(C3CC3)c2=O)c2ccccc21 | 2.1%

mol | PINK1 expr mod
CC(=O)c1ccc(F)c(-c2cc(C)cc3c2OC(CNC(=O)C2CCCCN2C)C3)c1 (stereo not given) | 0.8%
Cc1cc(-c2cc(F)cc3c2OC(CNC(=O)CCn2cncn2)C3)ccc1F (stereo not given) | -0.6%
CCn1c(C)nc2cc(NS(=O)(=O)c3ccccc3)cc(C(=O)N3C[C@@H](C)O[C@@H](C)C3)c21 | 0.1%
O=c1c(-c2cc(F)cc(F)c2)nc2cnc(Oc3ccccc3)nc2n1C1CC1 | 0.6%
CN(C)Cc1ccccc1-c1nccc(NC2CC2)n1 | 2.5%
Cc1noc(C)c1-c1ccc2ncnc(Nc3ccc(F)cc3)c2c1 | 0.3%
COc1c(O)cc2oc3cc(O)c(CC=C(C)C)c(O)c3c(=O)c2c1CC=C(C)C | 13%
COc1cccc(-c2cc(NCc3cccc(C)c3)ncn2)c1 | -0.8%
COc1ccc(-n2c(=O)c(-c3cc(F)cc(F)c3)nc3cnc(N(C)C)nc32)cc1 | 8.3%
Cc1ccc(CNc2ncnc3sc(C(=O)N4CCC[C@H]4C(N)=O)c(C)c23)o1 | -0.5%

mol | PINK1 expr mod
O=C(O)c1cccc(-c2noc(-c3cccc(Cl)c3)n2)c1 | 0.2%
O=C(c1ccncc1)N1CCC2(CC1)CCN(c1ccccn1)CC2 | -0.3%
C/C(=C\c1ccco1)CN1CCOc2ccc(CN3CCC(Oc4cccnc4)CC3)cc2C1 | -0.5%
CN(C)C(=O)c1ccc(-c2cncnc2NCCc2cnc[nH]2)cc1 | 0.7%
COc1ccccc1-n1cc(C(=O)NCCN2Cc3ccccc3OC(c3ccsc3)C2)cn1 (stereo not given) | 0.8%
Cc1noc(C)c1-c1cc(NCCN2CCOCC2)ncn1 | 1.0%
O=C(c1ccco1)N1CCC2(CCCN(C(c3ccccc3)c3ccccc3)C2)CC1 | 1.8%
O=C(c1n[nH]c2c1CCCC2)N1CCC(n2c(C3CCCO3)nc3ccccc32)CC1 (stereo not given) | -0.9%
COc1cccc(CNc2ncnc3sc(C(=O)N4CCOCC4)c(C)c23)c1OC | 0.1%
Cc1noc(C)c1C(=O)N1CCC[C@@]2(CCN(Cc3cc(C(F)(F)F)cc(C(F)(F)F)c3)C2)C1 | -0.3%

mol | PINK1 expr mod
COC(=O)c1cc(CNC(=O)c2ccccc2OC)cc(NC(=O)c2ccccc2F)c1 | -0.4%
O=c1c(-c2ccc(Cl)cc2)nc2cnc(N3CCNCC3)nc2n1-c1ccccc1 | 0.1%
CCCCCC1C(=O)CCC1CC(=O)O (stereo not given) | 1.5%
CC(NC(=O)c1cc(F)ccc1F)c1nnc2n1CCN(Cc1ccc(-c3ccccc3)cc1)CC2 (stereo not given) | -0.1%
Cc1cccc2c(N3CCCC3)nc(CNS(=O)(=O)c3ccc4ccccc4c3)nc12 | -1.3%
COc1ccc(-c2nc3cnc(Nc4cccc(OC)c4)nc3n(Cc3cccs3)c2=O)cc1 | u
COc1ccc(C(=O)N2CCC3(CC2)CCN(c2ccncc2)CC3)cc1 | -0.3%
c1ccc2c(Nc3ccncc3)nc(-c3ccc4c(c3)OCO4)nc2c1 | -2.1%
OC(c1ccc2c(c1)CN(Cc1c[nH]c3ccccc13)CCO2)c1ccccn1 (stereo not given) | -0.1%
COCCn1c(=O)c(-c2cc(F)cc(F)c2)nc2cnc(OC)nc21 | -0.8%
CCNc1ncc2nc(-c3cccs3)c(=O)n(Cc3cccs3)c2n1 | u
COC(=O)N1CCC2(CCCN(c3ccc(-c4ccccc4)cc3)C2)CC1 | 1.8%

Four entries picked at random from the list so far, as already listed:
mol | PINK1 expr mod
O=c1c(-c2ccc(Cl)cc2)nc2cnc(N3CCNCC3)nc2n1-c1ccccc1 | 0.1%
CCCCCC1C(=O)CCC1CC(=O)O (stereo not given) | 1.5%
COC(=O)N1CCC2(CCCN(c3ccc(-c4ccccc4)cc3)C2)CC1 | 1.8%
Cc1cccc2c(N3CCCC3)nc(CNS(=O)(=O)c3ccc4ccccc4c3)nc12 | -1.3%

Screening data as filed in PubChem.
